# Cruzain Triton: cruzain (T. cruzi) inhibition with detergent | purified cruzain, Z-FR-AMC fluorescence, 0.01% Triton | P25779 | Potency, µM, inactives show max response, negative = inhibition, usual class: inhibitors | AID 1478 | 200,000 compounds, 0.43% hits;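 also: plate controls were neutral wells for no effect and buffer without enzyme for full effect; nearly all actives have a fitted effect of over 40% in size; top concentration of the series not given in the record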
# Target sequence (P25779 123-467 limits assumed): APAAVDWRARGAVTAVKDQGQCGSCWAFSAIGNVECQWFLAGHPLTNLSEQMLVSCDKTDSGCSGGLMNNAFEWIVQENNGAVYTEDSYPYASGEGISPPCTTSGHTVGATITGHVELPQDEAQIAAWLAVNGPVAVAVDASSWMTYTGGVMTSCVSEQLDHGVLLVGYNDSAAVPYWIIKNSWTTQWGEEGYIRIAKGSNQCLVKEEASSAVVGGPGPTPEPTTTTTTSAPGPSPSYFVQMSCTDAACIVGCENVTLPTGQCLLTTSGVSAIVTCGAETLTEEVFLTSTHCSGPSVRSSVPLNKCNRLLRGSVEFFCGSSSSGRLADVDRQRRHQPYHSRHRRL
#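 Detergent-containing arm of a paired screen for aggregation-based inhibition: 0.01% Triton X-100 present. Cruzain at 1.5 nM cleaved 2 uM Z-FR-AMC at pH 5.5 with 5 mM DTT; AMC fluorescence gain over 60 s measured activity.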
# NS1 function inh: inhibitors of influenza NS1 protein function. S. cerevisiae slowed by influenza A NS1, growth recovery by OD600. Potency, µM (top dose mostly 46.1 µM), without a hit: top-dose activity, positive = more growth. 270,000 compounds, 0.4% hits. AID 2326; active means well fitted rising curve with a large enough effect; inconclusive means small, poorly fitted or top-dose-only effect; inactive means no such curve, though single readings can be large or run the other way; also: nearly all actives have a fitted effect of over 50% in size
#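 Read-out: OD600 growth recovery of NS1-expressing budding yeast. Cells grown overnight at 30C in -URA glucose medium, washed, resuspended and diluted 1:100 in 2% galactose assay medium, pH 6.0. Same strain lacking NS1 served as positive control.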
# Cruzain inh noDet: inhibitors of Trypanosoma cruzi cruzain without detergent; purified cruzain, Z-FR-AMC fluorescence, no detergent; Potency, µM, without a hit: max response, negative = inhibition, hits mostly inhibitors; P25779; 200,000 compounds, 2.3% hits;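 also: plate controls were enzyme without inhibitor for no effect and buffer without enzyme for full effect; nearly all actives have a fitted effect of over 40% in size; top concentration of the series not given in the record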
#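 Detergent-free condition (0.00005% Triton X-100) in acetate buffer pH 5.5 with DTT. 1.5 nM enzyme and compound were pre-mixed 15 min, then 2 uM Z-FR-AMC substrate added; reaction progress from fluorescence change between first and third reads (60 s).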
# LASV entry inh: blocks Lassa virus binding to or entry into cells | Lassa virus pseudotype entry inhibition, cell reporter; control for the full effect not named in the record | Potency, µM (top dose mostly 37.9 µM), without a hit: top-dose activity change, negative = inhibition, most hits filed as inhibitors | 300,000 compounds, 1.2% hits; active means well fitted inhibition curve with a large enough effect; inconclusive means small, poorly fitted or top-dose-only effect, or effect the other way; inactive means flat fitted curve, though single readings scatter; tested in HEK293 cells; also: % is scaled to controls: 0 for no effect and ±100 for the full control effect; nearly all actives have a fitted effect of over 50% in size; luciferase read-out
# SARS PLP yeast: inhibitors of SARS-CoV papain-like protease in yeast. AID 485353. Potency, µM (series often up to 32.9 µM), for the others: at the highest dose activity, positive = growth rescue. S. cerevisiae expressing SARS-CoV PLpro, growth rescue; control for the full effect not named in the record. 330,000 compounds, 0.19% hits; active means well fitted rising curve with a large enough effect; inconclusive means small, poorly fitted or top-dose-only effect; inactive means no such curve, though single readings can be large or run the other way; also: 0% is about no effect; nearly all actives have a fitted effect of over 55% in size; growth read by luminescence after 48 h
# RE007 growth inh: less growth of the S. pombe RE007 Vpr strain; Potency, µM (series often up to 92.2 µM), for the others: at the top dose activity change, negative = less growth; S. pombe RE007 Vpr strain, BacTiter-Glo ATP luminescence, 24 h; control for the full effect not named in the record; 360,000 compounds, 0.21% hits; active = well fitted falling curve with a large enough effect; inconclusive = small, poorly fitted or top-dose-only effect; inactive = no such curve, though single readings can be large or run the other way;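 also: % is scaled to controls: 0 for no effect and ±100 for the full control effect; nearly all actives have a fitted effect of over 50% in size; the assay follows cell death caused by Vpr and the record does not say whether a fall means rescue or toxicity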
#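 Fission yeast strain RE007, carrying one chromosomally integrated HIV-1 vpr copy, was seeded at OD 0.01 in PMG+AL medium with 23 nL pinned compound. After 24 h at 30 °C and 99% humidity, viability was read by BacTiter-Glo luminescence.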
# 2A StopGo: FMDV 2A StopGo reporter, luciferase signal; human cells with a luciferase reporter of 2A StopGo recoding; control for the full effect not named in the record; AID 1159524; 410,000 compounds, 1.2% hits; Potency, µM (highest dose often 57.9 µM), for inactives: at the highest dose signal change, negative = less light; active = well fitted falling curve with a large enough effect; inconclusive = small, poorly fitted or top-dose-only effect; inactive = no such curve, though single readings can be large or run the other way; tested in HEK293T cells; also: % is scaled to controls: 0 for no effect and ±100 for the full control effect; nearly all actives have a fitted effect of over 45% in size; luciferase light after 4 h
# MARV entry inh: inhibitors of Marburg virus binding or cell entry; Marburg virus pseudotyped entry inhibition, cell reporter; control for the full effect not named in the record; about a third of the inactives were read at about 46 µM; 300,000 compounds, 1.8% hits; AID 540276; Potency, µM (series often up to 37.8 µM), inactives show at the top dose activity change, negative = inhibition, usual class: inhibitors; active = well fitted inhibition curve with a large enough effect; inconclusive = small, poorly fitted or top-dose-only effect, or effect the other way; inactive = flat fitted curve, though single readings scatter; tested in HEK293 cells; about a fifth of its hits are not listed in these tables; also: % is scaled to controls: 0 for no effect and ±100 for the full control effect; luciferase read-out
# Active calls of the source: *; ? = inconclusive; / = no result given; & = joins results of further samples; [ ] = another dose, or the depositor's remark. Unless noted, calls follow the shape of the dose curve; as a rule, active = well fitted curve in the direction sought with a large enough effect; inconclusive = small, poorly fitted or top-dose-only effect, or another doubt; inactive = no such curve, though single readings can be large; an effect the other way counts as inactive or inconclusive. Potency is read from the fitted curve at half-maximal effect.
entry	mol	LASV entry inh	Cruzain Triton	NS1 function inh	SARS PLP yeast	RE007 growth inh	2A StopGo	Cruzain inh noDet	MARV entry inh
1	Cc1cccc(N2CCN(C(=O)C34CC5CC(CC(C5)C3)C4)CC2)c1C	1%	-0.3%	?	?	-4%	0%	-7%	-30%[46.1 µM]
2	COc1ccc(CCNc2ncnc3onc(-c4ccc(Cl)cc4)c23)c(OC)c1	-25%[46.1 µM]	-4.8%	/	/	/	?	-3%	/
3	Cc1cc(C)nc(SCC2COc3ccccc3O2)n1 (stereo not given)	22%	-1.7%	-68%	1%	-9%	12%	1%	1%
4	COc1ccccc1Nc1c2c(nc3ccc(NC(=O)c4ccccc4F)cc13)CCCC2	?	-12%	/	/	/	?	-1%	3.2µM*
5	CC(=O)Nc1cccc(O)c1	/	-0.9%&0.2%	/	-3%	8%	-18%&-3%	6%&10%	/
6	O=C(Nc1ccccc1C1CC1)c1cccs1	3%	3.8%	-3%	0%	-19%	-6%	-2%	2%
7	O=C(Nc1ccc2c(c1)OCO2)C1CCN(S(=O)(=O)Cc2ccccc2)CC1	-8%	2.2%	-6%	-2%	7%	-14%	-9%	-1%
8	Cc1c(-c2ccccc2)nc2ccccc2c1C(=O)NCc1cccs1	-19%	-9.1%	-11%	-3%	0%	0%	-10%	?
9	CCOC(=O)c1ccc(NC(=O)NCCc2ccccc2OC)cc1	/	/	-10%	-3%	10%	?	/	/
10	CN(C)S(=O)(=O)c1ccc(C(=O)NCCSc2c(-c3ccccc3)[nH]c3ccccc23)cc1	?	-1.3%	/	/	/	?	?	-5%[46.1 µM]
11	CCOC(=O)N1CCN(C(=O)COc2ccc(S(=O)(=O)NCc3ccccc3)cc2)CC1	-26%	2.3%	4%	-3%	11%[3.69 µM]	?	19%	?
12	Cc1cccc(NC(=O)C2CCCN(C(=O)Nc3ccc(F)cc3)C2)c1C (stereo not given)	2%	/	4%	3%	-21%	-14%	/	10%[46.1 µM]
13	CCSc1nc(-c2cccc(Cl)c2)nc2c1Cc1c(CO)cnc(C)c1O2	27%[46.1 µM]	-0.9%	/	/	/	-23%	8%	/
14	Cc1oc2ccc(O)c(CN3CCN(Cc4ccccc4)CC3)c2c1C(=O)Nc1ccccc1	?	-6.9%	/	/	/	-17%	-4%	?
15	Cc1cccc(NC(=O)c2c(C)oc3ncn(CC(C)C)c(=O)c23)n1	14%[46.1 µM]	-1.0%	/	/	/	-12%	0%	/

# Single records, from the list above. Order of values: LASV entry inh, Cruzain Triton, NS1 function inh, SARS PLP yeast, RE007 growth inh, 2A StopGo, Cruzain inh noDet, MARV entry inh
# Cc1cccc(N2CCN(C(=O)C34CC5CC(CC(C5)C3)C4)CC2)c1C across the screens: 1%, -0.3%, ?, ?, -4%, 0%, -7%, -30%[46.1 µM]
# CCSc1nc(-c2cccc(Cl)c2)nc2c1Cc1c(CO)cnc(C)c1O2 across the screens: 27%[46.1 µM], -0.9%, /, /, /, -23%, 8%, /

# The listing continues.
entry	mol	LASV entry inh	Cruzain Triton	NS1 function inh	SARS PLP yeast	RE007 growth inh	2A StopGo	Cruzain inh noDet	MARV entry inh
16	CCOC(=O)c1[nH]c2ccccc2c1NC(=O)c1cc(OC)c(OC)c(OC)c1	13%	/	-40%	/	-7%	/	/	-23%
17	COC(=O)CC(c1ccc(C#N)cc1)n1c(C)ccc1C (stereo not given)	-14%[46.1 µM]	/	8%	0%	0%	-3%	/	-27%[46.1 µM]
18	COc1cc(C(c2sc3ncnn3c2O)N2CCN(c3ccccc3F)CC2)cc(OC)c1OC (stereo not given)	/	1.3%	-55%	-11%	0%	2%	?	/
19	CCc1ccc(CN(C(=O)c2oc3ccccc3c2C)C2CCS(=O)(=O)C2)cc1 (stereo not given)	/	/	-43%	-10%	18%	-26%	/	/
20	Cc1cccc(N2CCN(C(=O)c3cccc(S(=O)(=O)N4CCCCC4)c3)CC2)c1C	?	/	/	0%	-3%	?	/	?
21	Fc1ccc(CNC(=S)Nc2ccccc2F)cc1	/	/	1%	25%	2%	52%[activator]	/	/
22	CCCCOc1ccc(-c2nc(/C=N/c3nccs3)c(O)o2)cc1	0%	0.5%	4%	-12%	6%	-24%	?	?
23	COc1ccc(OCC(=O)Nc2ccc3c(c2)C(=O)NC3=O)cc1	/	/	16%	1%	7%	-11%	/	/
24	NC(=O)COC(=O)c1sc2cc(F)ccc2c1Cl	1%[46.1 µM]	/	8%	-4%	25µM*	3%	/	1%[46.1 µM]
25	C=CCN1C(=O)CS/C1=C(\C#N)S(=O)(=O)c1ccc(C)cc1	10%	0.1%	1.6µM*	13%	3%	-22%	-18%	0%
26	CCOc1ccc(-c2nc(CSCC(=O)NCCN3CCOCC3)c(C)o2)cc1	4%	7.4%	0%	0%	-10%	9%	16%	-3%
27	Cc1ccc(C(=O)N2CCCC(c3nc4c(nnn4Cc4ccccc4)c(=O)[nH]3)C2)cc1 (stereo not given)	-17%	0.2%	6%	3%	-9%	-18%	-10%	18%
28	CSc1cccc(-n2cc(-c3ccc4c(c3)OCO4)[nH]c2=O)c1	-22%	-5.7%	6%	1%	7%	43%[activator]	32µM*	?
29	O/N=C1\CCc2cc(Cl)ccc21	6%	-1.7%	1%	1%	-10%	-14%	-2%	1%
30	CCSc1nc(N)nc2c1ncn2C1OC(CO)C(O)C1O (stereo not given)	15%	/	/	/	-20%	0%	/	21%

# A section from further up:
entry	mol	LASV entry inh	Cruzain Triton	NS1 function inh	SARS PLP yeast	RE007 growth inh	2A StopGo	Cruzain inh noDet	MARV entry inh
16	CCOC(=O)c1[nH]c2ccccc2c1NC(=O)c1cc(OC)c(OC)c(OC)c1	13%	/	-40%	/	-7%	/	/	-23%
17	COC(=O)CC(c1ccc(C#N)cc1)n1c(C)ccc1C (stereo not given)	-14%[46.1 µM]	/	8%	0%	0%	-3%	/	-27%[46.1 µM]
18	COc1cc(C(c2sc3ncnn3c2O)N2CCN(c3ccccc3F)CC2)cc(OC)c1OC (stereo not given)	/	1.3%	-55%	-11%	0%	2%	?	/
19	CCc1ccc(CN(C(=O)c2oc3ccccc3c2C)C2CCS(=O)(=O)C2)cc1 (stereo not given)	/	/	-43%	-10%	18%	-26%	/	/
20	Cc1cccc(N2CCN(C(=O)c3cccc(S(=O)(=O)N4CCCCC4)c3)CC2)c1C	?	/	/	0%	-3%	?	/	?
21	Fc1ccc(CNC(=S)Nc2ccccc2F)cc1	/	/	1%	25%	2%	52%[activator]	/	/
22	CCCCOc1ccc(-c2nc(/C=N/c3nccs3)c(O)o2)cc1	0%	0.5%	4%	-12%	6%	-24%	?	?
23	COc1ccc(OCC(=O)Nc2ccc3c(c2)C(=O)NC3=O)cc1	/	/	16%	1%	7%	-11%	/	/
24	NC(=O)COC(=O)c1sc2cc(F)ccc2c1Cl	1%[46.1 µM]	/	8%	-4%	25µM*	3%	/	1%[46.1 µM]
25	C=CCN1C(=O)CS/C1=C(\C#N)S(=O)(=O)c1ccc(C)cc1	10%	0.1%	1.6µM*	13%	3%	-22%	-18%	0%
26	CCOc1ccc(-c2nc(CSCC(=O)NCCN3CCOCC3)c(C)o2)cc1	4%	7.4%	0%	0%	-10%	9%	16%	-3%
27	Cc1ccc(C(=O)N2CCCC(c3nc4c(nnn4Cc4ccccc4)c(=O)[nH]3)C2)cc1 (stereo not given)	-17%	0.2%	6%	3%	-9%	-18%	-10%	18%

# New compounds follow
entry	mol	LASV entry inh	Cruzain Triton	NS1 function inh	SARS PLP yeast	RE007 growth inh	2A StopGo	Cruzain inh noDet	MARV entry inh
31	CC(C)OC(=O)CSc1nnc(C2CCCCC2)n1N	/	/	0%	-1%	-2%	-3%	/	/
32	Cc1nc(NCCN2CCOCC2)c2nnn(Cc3c(F)cccc3Cl)c2n1	15%	1.3%	-8%	0%	-5%	-27%	-6%	-19%
33	CCOC(=O)c1cn(CC)c2cc(N3CCCCC3)c(F)cc2c1=O	-11%	/	-13%	/	-3%	-4%	/	-1%
34	O=S(=O)(c1ccc(F)c(F)c1)N1CCN(S(=O)(=O)c2cccs2)CC1	?	/	14%	-2%	-9%	2%	/	?
35	NCCc1nc2ccccc2s1	9%[46.1 µM]	/	/	3%	9%	20%	/	18%[46.1 µM]

# Screening results (PubChem BioAssay)
